miR-21 reporter: raises the signal of a miR-21 reporter | HeLa miR-21 FLuc reporter, luciferase, 48 h | Potency, µM (top dose mostly 38.3 µM), inactives show at the highest dose reporter change, positive = more light | 340,000 tested, under 10 active; active = well fitted rising curve with a large enough effect; inconclusive = small, poorly fitted or top-dose-only effect; inactive = no such curve, though single readings can be large or run the other way;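 further: % of control where 0% means no effect; miR-21 action dims this reporter so a rising signal means less miR-21 action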
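HeLa cells stably expressing CMV-driven firefly luciferase with a downstream miR-21 binding sequence, endogenously expressing miR-21, were treated with titrations (up to about 40uM final) for 48 hours at 37 degree Celsius. Luciferase luminescence was read after lysis.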
GLA inh pH 4.5: blocks human alpha-galactosidase A at pH 4.5; P06280; purified enzyme, 4-MU-alpha-Gal fluorescence, pH 4.5; activity change, negative = inhibition, % at 105 µM; 230,000 tested, under 10 active; inconclusive = small, poorly fitted or top-dose-only inhibition, or a rising curve; inactive = flat fitted curve, though single readings scatter; no compound was filed as active;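 further: 0% = full activity with enzyme and -100% = basal without enzyme; dose as in the result columns while the protocol names 77 µM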
Rango-impB inh: inhibitors of Rango-importin beta complex formation | Rango CFP/YFP FRET sensor + importin beta, 45 min | Potency, µM (top dose mostly 92.2 µM), inactives show at the top dose inhibition of complex formation | 0.031% of 340,000 active | AID 540263; active = rising FRET ratio curve, often small or poorly fitted; inconclusive = mostly compound fluorescence or quenching in the first reads; inactive = flat curves in all reads;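 further: potency means the concentration at half of the fitted maximal effect; 0% = DMSO wells and 100% = buffer wells lacking importin beta; nearly all actives have a fitted effect of over 15% in size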
Target sequence (Q14974 whole entry, looked up): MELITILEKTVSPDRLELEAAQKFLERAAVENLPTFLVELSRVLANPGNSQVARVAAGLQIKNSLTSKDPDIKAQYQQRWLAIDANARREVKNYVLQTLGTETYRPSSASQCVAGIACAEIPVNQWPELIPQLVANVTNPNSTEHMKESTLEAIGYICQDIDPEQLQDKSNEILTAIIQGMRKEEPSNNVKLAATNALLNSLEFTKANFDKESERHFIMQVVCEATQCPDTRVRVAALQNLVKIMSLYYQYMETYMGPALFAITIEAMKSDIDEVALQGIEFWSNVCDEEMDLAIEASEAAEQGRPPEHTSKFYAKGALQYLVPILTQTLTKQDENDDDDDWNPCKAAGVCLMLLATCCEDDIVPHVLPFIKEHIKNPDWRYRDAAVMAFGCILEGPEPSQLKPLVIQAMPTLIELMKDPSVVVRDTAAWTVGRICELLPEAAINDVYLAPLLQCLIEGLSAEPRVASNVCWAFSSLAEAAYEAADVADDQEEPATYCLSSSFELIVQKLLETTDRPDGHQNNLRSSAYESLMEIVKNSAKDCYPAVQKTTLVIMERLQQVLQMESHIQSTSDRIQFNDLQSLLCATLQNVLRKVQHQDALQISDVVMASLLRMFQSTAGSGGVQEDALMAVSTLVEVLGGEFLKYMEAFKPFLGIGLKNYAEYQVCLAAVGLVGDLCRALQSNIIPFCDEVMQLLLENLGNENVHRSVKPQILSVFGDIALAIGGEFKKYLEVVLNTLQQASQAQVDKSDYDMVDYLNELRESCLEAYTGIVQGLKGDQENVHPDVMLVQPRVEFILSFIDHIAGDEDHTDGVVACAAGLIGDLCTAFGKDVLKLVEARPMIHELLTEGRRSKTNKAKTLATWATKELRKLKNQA
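FRET biosensor (snurportin 1 IBB flanked by EYFP and cerulean), 50 nM, with compound 5 min, then 0.125 microM importin beta in PBS, 1 mM DTT, 0.02% Tween-20, 0.1% BSA. CFP/YFP ratio read after 45 min at room temperature; pre-read flags interference.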
Rango dissoc inh: inhibition of RanGTP-driven Rango-importin beta dissociation; Biochemical FRET Rango-importin beta, RanGTP-induced dissociation; Potency, µM (series often up to 46.1 µM), for inactives: at the top dose activity change, negative = inhibition; 0.071% of 340,000 active; active means falling FRET ratio curve, often poorly fitted, with flat reads before Ran was added; inconclusive means other falling curves, or compound fluorescence or quenching; inactive means flat or rising ratio curve;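 further: potency means the concentration at half of the fitted maximal effect; % of control where 0% means no effect; nearly all actives have a fitted effect of over 45% in size; -100% = wells without RanGTP and RCC1; the record marks most hits as doubtful in a second field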
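FRET read at 45 min, room temperature: inhibitors block the CFP/YFP signal rise when RanGTP (0.6 uM Ran, 2 mM GTP, 0.2 uM RCC1) frees Rango (0.1 uM) from importin beta (0.25 uM). Pre-read after 5 min compound exposure flags interference.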
An asterisk follows results filed as active; & = joins results of further samples. The list is partial; rates above refer to the full screens.

Cc1ccc(-n2c(C)cc(/C=N/NC(=O)Cn3c4ccccc4c(=O)c4ccccc43)c2C)cc1 was read as miR-21 reporter -6%, GLA inh pH 4.5 6, Rango-impB inh inconclusive and Rango dissoc inh inconclusive.
`CCOC(=O)C1CCN(C(=O)c2cccc(Cl)c2)CC1` gave miR-21 reporter -7%, GLA inh pH 4.5 -2, Rango-impB inh 4.0% and Rango dissoc inh 11%.
`COc1cc(/C=N/N2CCOCC2)ccc1OCc1ccc(Cl)cc1` gave miR-21 reporter -47%, GLA inh pH 4.5 -30, Rango-impB inh -0.2% and Rango dissoc inh -15%.
Screening CCC(C)C1NC(=S)N(Cc2ccccc2)C1=O (stereo not given) returned miR-21 reporter 4%, GLA inh pH 4.5 15, Rango-impB inh -4.7% and Rango dissoc inh -20%.
`Cc1cccc(OCCCC(=O)N2CCCc3ccccc32)c1C` gave miR-21 reporter -6%, GLA inh pH 4.5 -3, Rango-impB inh 4.9% and Rango dissoc inh 31%.
CCCC(=O)N1N=C(c2ccccc2)CC1c1cn(C)c2ccccc12 (stereo not given) was read as miR-21 reporter -15%, GLA inh pH 4.5 -11, Rango-impB inh -1.8% and Rango dissoc inh -7%.
O=C(/C=C/c1ccc(N2CCC(c3ccccc3)=N2)cc1)c1ccccc1 was read as miR-21 reporter -46%, GLA inh pH 4.5 1, Rango-impB inh inconclusive and Rango dissoc inh inconclusive.
Screening CC(C)N(C(=O)COC(=O)[C@H](C)NC(N)=O)c1ccccc1 returned miR-21 reporter 0%, GLA inh pH 4.5 0, Rango-impB inh inconclusive and Rango dissoc inh 2%.
Screening O=C(NCC(c1ccco1)N1CCCCC1)c1cccc(S(=O)(=O)Nc2ccc(F)cc2)c1 (stereo not given) returned Rango-impB inh -1.9% and Rango dissoc inh 1%.
O=C1C(Cl)=C(NCCc2ccccc2)C(=O)c2ccccc21 was read as Rango-impB inh -2.6% and Rango dissoc inh 7%.
Screening CC1CN(C(=O)c2cccs2)CCN1C(=O)c1cccs1 (stereo not given) returned miR-21 reporter 0%, GLA inh pH 4.5 7, Rango-impB inh -0.1% and Rango dissoc inh -11%.
`COc1ccccc1CNC(=O)CCNS(=O)(=O)/C=C/c1ccc(C)cc1` gave Rango-impB inh 8.3% and Rango dissoc inh 15%.
`Cc1ccnc(N/C=C(\C#N)c2nc(-c3cccc(Br)c3)cs2)c1` gave miR-21 reporter -12%, GLA inh pH 4.5 -7, Rango-impB inh inconclusive and Rango dissoc inh inconclusive.
For Cc1ccc(C)c(NC(=O)C2CCCN(S(=O)(=O)c3ccc4[nH]c(=O)ccc4c3)C2)c1 (stereo not given) the results were miR-21 reporter -7%&5%, Rango-impB inh 0.2% and Rango dissoc inh 4%.
`CC(C)C(C(=O)NCC1CCCO1)N(Cc1ccco1)C(=O)CNS(=O)(=O)c1ccccc1` (stereo not given) gave miR-21 reporter -7%, GLA inh pH 4.5 2, Rango-impB inh -0.1% and Rango dissoc inh 7%.
C=CCc1cc(Cl)ccc1OCCCNC(C)CC (stereo not given) was read as miR-21 reporter -5%, GLA inh pH 4.5 -14, Rango-impB inh 0.0% and Rango dissoc inh 2%.
Cn1cc(CN2CCN(c3cnccn3)CC2)c(-c2cccc(Cl)c2)n1 was read as miR-21 reporter -3%, GLA inh pH 4.5 -6, Rango-impB inh 2.4% and Rango dissoc inh -11%.
`Cn1c(=O)n(CCc2ccccc2)c(=O)c2c1nc1n2CCCN1c1ccccc1` gave miR-21 reporter -4%, GLA inh pH 4.5 -3, Rango-impB inh 0.1% and Rango dissoc inh 22%.
`CCN(CC)CCNC(=O)Cn1cnc2sc(C)c(S(=O)(=O)N3CC(C)CC(C)C3)c2c1=O` (stereo not given) gave miR-21 reporter 7%, Rango-impB inh 3.1% and Rango dissoc inh 0%.
Screening c1ccc2c(OCCCN3CCCCCC3)cccc2c1 returned miR-21 reporter 6%, Rango-impB inh -1.1% and Rango dissoc inh 38%.

6 compounds already listed, ordered by number of heavy atoms, lowest first.
`CCOC(=O)C1CCN(C(=O)c2cccc(Cl)c2)CC1` gave miR-21 reporter -7%, GLA inh pH 4.5 -2, Rango-impB inh 4.0% and Rango dissoc inh 11%.
Screening CC1CN(C(=O)c2cccs2)CCN1C(=O)c1cccs1 (stereo not given) returned miR-21 reporter 0%, GLA inh pH 4.5 7, Rango-impB inh -0.1% and Rango dissoc inh -11%.
Screening CC(C)N(C(=O)COC(=O)[C@H](C)NC(N)=O)c1ccccc1 returned miR-21 reporter 0%, GLA inh pH 4.5 0, Rango-impB inh inconclusive and Rango dissoc inh 2%.
`Cc1cccc(OCCCC(=O)N2CCCc3ccccc32)c1C` gave miR-21 reporter -6%, GLA inh pH 4.5 -3, Rango-impB inh 4.9% and Rango dissoc inh 31%.
`Cn1c(=O)n(CCc2ccccc2)c(=O)c2c1nc1n2CCCN1c1ccccc1` gave miR-21 reporter -4%, GLA inh pH 4.5 -3, Rango-impB inh 0.1% and Rango dissoc inh 22%.
`CCN(CC)CCNC(=O)Cn1cnc2sc(C)c(S(=O)(=O)N3CC(C)CC(C)C3)c2c1=O` (stereo not given) gave miR-21 reporter 7%, Rango-impB inh 3.1% and Rango dissoc inh 0%.

The list continues:
`Cc1ccc(C)n1-c1cccc(C(=O)O)c1` gave miR-21 reporter -5% and GLA inh pH 4.5 2.
Screening O=C(NC(Cc1ccccc1)C(=O)N1CCCC1C(=O)O)c1ccccc1 (stereo not given) returned miR-21 reporter 0%, GLA inh pH 4.5 3, Rango-impB inh -2.3% and Rango dissoc inh -11%.
CC(NC(=O)c1ccc2c(c1)C(=O)N(Cc1cccnc1)C2=O)c1ccccc1 (stereo not given) was read as miR-21 reporter 0%, Rango-impB inh 5.8% and Rango dissoc inh 22%.
COc1ccc(/C=C/C(=O)NC(C)CCc2ccccc2)cc1OC (stereo not given) was read as miR-21 reporter -11%, GLA inh pH 4.5 -9, Rango-impB inh -1.1% and Rango dissoc inh 0%.
For COc1ccc(CNC(=O)C2CCN(C(=O)Cc3ccccc3)CC2)cc1 the results were miR-21 reporter 0%, Rango-impB inh 0.2% and Rango dissoc inh -8%.
CC(C)(C)c1ccc(O)c(O)c1 was read as Rango-impB inh 5.3% and Rango dissoc inh 15%.
`COc1ccccc1CNC(=O)CS(=O)Cc1nc(-c2ccccc2C)oc1C` (stereo not given) gave miR-21 reporter -4%, GLA inh pH 4.5 -5, Rango-impB inh 0.9% and Rango dissoc inh -21%.
For Cc1ccc2nc(C)c(C(=O)N/N=C/c3ccc(N4CCOCC4)cc3)cc2c1 the results were miR-21 reporter -11%, GLA inh pH 4.5 -11, Rango-impB inh -1.4% and Rango dissoc inh -7%.
COc1cccc(-c2nc(-c3ccc4c(c3)NC(=O)CO4)cs2)c1 was read as miR-21 reporter -39%, GLA inh pH 4.5 -1, Rango-impB inh 1.0% and Rango dissoc inh -1%.
For CS(=O)(=O)N(CC(=O)NCc1ccco1)c1ccc(OCc2ccccc2)cc1 the results were miR-21 reporter -16%, GLA inh pH 4.5 -11, Rango-impB inh 6.1% and Rango dissoc inh 1%.
Cn1c(/N=C/c2ccccc2[N+](=O)[O-])nc2ccccc21 was read as miR-21 reporter 1%, Rango-impB inh -0.2% and Rango dissoc inh -9%.
Screening N#Cc1ccc(CSc2ccc(S(=O)(=O)N3CCCCCC3)cn2)cc1 returned Rango-impB inh 3.5% and Rango dissoc inh -1%.
For Cn1nccc1NS(=O)(=O)c1ccc(F)cc1 the results were miR-21 reporter -2%, GLA inh pH 4.5 2, Rango-impB inh -4.8% and Rango dissoc inh -10%.
For COc1ccc(/C=C/C(=O)c2ccc(O)cc2)cc1CN1CCOCC1 the results were miR-21 reporter 12%, GLA inh pH 4.5 -6, Rango-impB inh 3.9% and Rango dissoc inh 2%.
`CCCCOc1ccc(C(=O)NCC(=O)OCC(=O)N2CCN(S(=O)(=O)c3ccc(C)cc3C)CC2)cc1` gave miR-21 reporter 0%, GLA inh pH 4.5 -2, Rango-impB inh 1.8% and Rango dissoc inh 6%.
`CC(=O)Nc1cccc(C(=O)OCC(=O)NCc2ccc(F)cc2)c1` gave miR-21 reporter -2%, GLA inh pH 4.5 -2, Rango-impB inh -0.7% and Rango dissoc inh 0%.
Screening COc1cccc(-n2nc(C(=O)O)c3ccccc3c2=O)c1 returned miR-21 reporter 0%, GLA inh pH 4.5 2, Rango-impB inh 0.1% and Rango dissoc inh -10%.
`O=C(c1cc(-c2ccccn2)nc2ccc(Br)cc12)N1CCN(S(=O)(=O)c2ccccc2)CC1` gave miR-21 reporter -4%, GLA inh pH 4.5 4, Rango-impB inh -4.2% and Rango dissoc inh 33%.
Cc1ccc(S(=O)(=O)Nc2ccc(C(=O)N3CCCC3)cc2)c(C)c1NS(C)(=O)=O was read as miR-21 reporter -2%, Rango-impB inh -1.7% and Rango dissoc inh -14%.
CC(C)CCNC(=O)C(=O)NCCC1=CCCCC1 was read as miR-21 reporter -14%, GLA inh pH 4.5 -5, Rango-impB inh 3.7% and Rango dissoc inh 7%.
`CCN1C(=C2C(=O)c3ccccc3C2=O)C=Cc2ccccc21` gave miR-21 reporter -35%, GLA inh pH 4.5 -4, Rango-impB inh inconclusive and Rango dissoc inh inconclusive.
For N#C/C(=C\c1c(N2CCOCC2)nc2ccccn2c1=O)C(=O)NC1CCS(=O)(=O)C1 (stereo not given) the results were miR-21 reporter -3%, GLA inh pH 4.5 inconclusive, Rango-impB inh 1.6% and Rango dissoc inh inconclusive.
Screening O=C(Nc1nc2cc3c(cc2s1)OCCO3)c1ccncc1 returned miR-21 reporter 2%, GLA inh pH 4.5 7, Rango-impB inh 2.9% and Rango dissoc inh 8%.
COc1ccc(NC(=O)CN(C)CC(=O)N(C)C2(C#N)CCC(C)CC2)cc1 (stereo not given) was read as Rango-impB inh -3.8% and Rango dissoc inh -4%.
CCOC(=O)c1c(C)[nH]c(C(=O)OC)c1CCC(=O)OC was read as miR-21 reporter 2%, GLA inh pH 4.5 -5, Rango-impB inh 0.0% and Rango dissoc inh 0%.
`Cc1ccccc1NC(=O)N1C2CCCC1CC(NC(=O)C(C)(C)C)C2` (stereo not given) gave miR-21 reporter -1%, GLA inh pH 4.5 1, Rango-impB inh -0.9% and Rango dissoc inh 0%.
Cc1n[nH]c(C)c1S(=O)(=O)N1CCC(C(=O)O)CC1 was read as miR-21 reporter -14%, GLA inh pH 4.5 -3, Rango-impB inh -0.9% and Rango dissoc inh -5%.
For Cc1c(C(=O)O)oc2ccc(S(=O)(=O)N3CCCC3)cc12 the results were miR-21 reporter -4%, Rango-impB inh -2.7% and Rango dissoc inh -15%.
For COc1ccc(C(=O)Nc2cc(Cl)ccc2-n2cncn2)c(OC)c1OC the results were Rango-impB inh 2.7% and Rango dissoc inh -7%.
COc1ccc(NC(=S)NC2CCCCC2)c(OC)c1 was read as miR-21 reporter -13%, GLA inh pH 4.5 7, Rango-impB inh -0.4% and Rango dissoc inh 2%.
CC(=O)NCCNc1nc2c(-c3ccccc3)nnn2c2ccccc12 was read as miR-21 reporter -2%, Rango-impB inh 1.9% and Rango dissoc inh -9%.

Screens as filed in PubChem BioAssay.
